TRPML1 agonist: activates the human TRPML1 channel; TRPML1-expressing cells, Ca2+ dye fluorescence, FDSS; host cell line not named in the record; reference of the full effect not given here; actives 0.12% (n = 410,000); Q9GZU1; activation, % (no concentration beside the values); in the data active = activation above about 50%; inconclusive = about 30% to 50%; inactive = below about 30%; note: 0% is about no effect; the text of the record puts the active cut at 80%
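Tetracycline-induced TRPML1-DL cells are seeded and incubated overnight before loading with a no-wash Ca2+ dye and quencher. Agonist activity is taken from the 110 s fluorescence read following compound pin-transfer on an FDSS, before EC80 54-4 challenge.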
TRPV1 potentiator: potentiators of human vanilloid receptor 1 (TRPV1) | Q8NER1 | TRPV1-expressing cells, Fluo-8 calcium influx, capsaicin EC20 potentiation; host cell line not named in the record; control for the full effect not named in the record | potentiation, % at 8.33 µM | actives 0.02% (n = 320,000); active means potentiation above 80%; inconclusive means 30% to 80%; inactive means below 30%; note: 0% is about no effect
Target sequence (Q8NER1 whole entry, looked up): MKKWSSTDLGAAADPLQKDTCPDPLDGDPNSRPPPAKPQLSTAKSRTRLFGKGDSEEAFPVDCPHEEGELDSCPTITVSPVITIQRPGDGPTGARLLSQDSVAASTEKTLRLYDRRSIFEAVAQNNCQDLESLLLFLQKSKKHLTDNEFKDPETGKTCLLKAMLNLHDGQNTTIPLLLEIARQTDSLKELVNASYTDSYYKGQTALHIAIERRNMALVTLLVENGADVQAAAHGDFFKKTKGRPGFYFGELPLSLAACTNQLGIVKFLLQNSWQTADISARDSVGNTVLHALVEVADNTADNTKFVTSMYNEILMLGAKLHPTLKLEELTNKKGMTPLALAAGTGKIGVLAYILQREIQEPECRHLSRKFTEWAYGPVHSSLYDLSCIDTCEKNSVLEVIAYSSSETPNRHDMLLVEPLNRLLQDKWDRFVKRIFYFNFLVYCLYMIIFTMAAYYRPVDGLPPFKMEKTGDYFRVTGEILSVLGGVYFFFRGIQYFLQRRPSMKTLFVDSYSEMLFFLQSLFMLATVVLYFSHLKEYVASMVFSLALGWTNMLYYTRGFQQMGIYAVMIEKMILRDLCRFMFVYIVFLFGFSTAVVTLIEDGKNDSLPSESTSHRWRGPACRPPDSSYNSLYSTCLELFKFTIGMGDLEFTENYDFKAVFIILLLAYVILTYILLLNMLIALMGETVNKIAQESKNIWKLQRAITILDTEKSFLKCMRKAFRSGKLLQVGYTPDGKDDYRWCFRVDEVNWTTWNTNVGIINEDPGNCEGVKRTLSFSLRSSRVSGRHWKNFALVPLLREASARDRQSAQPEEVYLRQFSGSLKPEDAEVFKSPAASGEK
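Cells expressing TRPV1 were dye-loaded with Fluo-8 and read kinetically: 10 s baseline, 3 min after compound (agonist portion), then 2 min after EC20 capsaicin (allosteric enhancer portion). Calcium-bound dye fluorescence at 480/520 nm.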
D2 PAM: human D2 receptor positive allosteric modulation; P14416; DiscoveRx D2 beta-arrestin cells, luminescence, 90 min; 100% = 57 uM dopamine signal; potentiation, % (concentration not given with the values); actives 0.23% (n = 360,000); active = potentiation of 50% or more; inconclusive = 30% to 50%; inactive = 30% or less;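 note: compound concentration not given in the record; tested on top of an EC20 dose of dopamine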
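PathHunter beta-arrestin assay in DiscoveRx D2 cells. Compounds were added with an EC20 of dopamine (50 nM final) for 90 min at 37 deg C. Luminescence was read 1 h after detection reagent, with 57 uM dopamine as the EC100 control.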
CtBP-E1A inh: blocks the CtBP interaction with E1A. AlphaScreen GST-E1A/His-CtBP binding, 1536-well; active compounds read low; control for the full effect not named in the record. activity change, % (concentration not given with the values). actives 0.49% (n = 340,000); in the data active means activity change below about -65%; inconclusive means about -30% to -65%; inactive means above about -30%; note: % is set by controls: 0 for no effect and ±100 for the full control effect
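GST-E1A and His-tagged CtBP (125 nM each as 5X stock) were preincubated with pin-transferred compound for 2 h at 37 °C in the dark, then glutathione donor and nickel acceptor beads were added for 1 h before AlphaScreen reading.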
Six1-Eya2 blk: Six1/Eya2 interaction inhibition. Q15475+O00167. AlphaScreen GST-Six1/His-Eya2 binding, biochemical; active compounds read low; control for the full effect not named in the record. activity change, % (concentration not given with the values). actives 0.56% (n = 360,000); in the data active = activity change below about -65%; inconclusive = about -30% to -65%; inactive = above about -30%; note: % is set by controls: 0 for no effect and ±100 for the full control effect
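Homogeneous AlphaScreen proximity assay pairing GST-Six1 with His-tagged Eya2 (added as 5X mix: 250 nM and 500 nM) in 50 mM Tris pH 8.0, 300 mM NaCl, 1 mM TCEP. Glutathione donor and nickel acceptor beads; 1 h, 37 °C, dark.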
TRPML1 blocker: human mucolipin-1 channel inhibition. Q9GZU1. TRPML1-inducible cells, Ca2+ dye fluorescence, FDSS; active compounds read low; inhibition of EC80 agonist-evoked calcium signal. activity change, negative = inhibition, % (no concentration beside the values). actives 0.02% (n = 390,000). AID 624415; in the data active means activity change below about -50%; inconclusive means about -30% to -50%; inactive means above about -30%;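 note: stimulus is agonist 54-4 at its EC80 concentration; % is set by controls: 0 for no effect and ±100 for the full control effect; compound concentration not given in the record; the text of the record puts the active cut at -80%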
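TRPML1-DL cells, Tet-induced overnight (~16 h, 37 °C) at 1,500 cells/well, were loaded with Ca8 no-wash dye plus quencher for 45-90 min at room temperature. Compounds were pinned during FDSS kinetic reading; agonist 54-4 at EC80 (4 uM final) then added.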
Numbers without * were called inactive; ? = inconclusive; . = no result given.

SMILES | TRPML1 agonist | TRPV1 potentiator | D2 PAM | CtBP-E1A inh | Six1-Eya2 blk | TRPML1 blocker
COc1cc(Cl)c(C)cc1NC(=O)CSC1=NCCS1 | 1.0 | . | -5 | . | 7 | 16
CN(C)C(=O)c1nc2ccc(Cl)cn2c1CNCc1cccc(OC(F)(F)F)c1 | 1.0 | -9 | -14 | 7 | -1 | 6
COc1ccc([C@H]2CC(=O)C=C(c3ccc(C(=O)O)cc3)C2)cc1OC | -0.8 | 3 | -7 | 0 | 8 | -6
Nc1c(Cl)cc(-c2csc(N3CCCC3c3nc4cc(Cl)c(N5CCCCC5)cc4n3CCCO)n2)cc1Cl (stereo not drawn) | 1.4 | . | -4 | -6 | -8 | 2
CCOc1ccc(NC(=O)CCc2nnc3ccc(N4CCC(C)CC4)nn23)cc1 | -0.5 | -12 | -3 | 3 | -1 | -6
CCc1ccc(CNC(=O)C2CCC(=O)N2C2CCCCC2)cc1 (stereo not drawn) | 0.1 | 2 | 3 | 3 | 3 | -10
CCOC(=O)Cn1cc(/C=N/N2C(=O)C3C4C=CC(C4)C3C2=O)c2ccccc21 (stereo not drawn) | 1.6 | 4 | -3 | 4 | 2 | -18
Cc1ccccc1N1CCN(S(=O)(=O)c2nnc(NC(=O)c3ccco3)s2)CC1 | -1.4 | 14 | -1 | 3 | -6 | -5
Cc1cccc(C)c1NC(=O)CCCCCC1NC(=O)NC1C (stereo not drawn) | 0.3 | 22 | -4 | 0 | 16 | 21
O=C(COc1ccc(S(=O)(=O)N2CCOCC2)cc1)NCCc1ccccc1 | -1.1 | 9 | 2 | 0 | 0 | -19
CC1CCN(CC(O)COC2CC(C)CCC2C(C)C)CC1 (stereo not drawn) | 0.6 | -4 | -13 | -1 | -2 | 12
Cc1ccc(N(C(=O)c2csnn2)C(C(=O)NCc2ccccc2)c2ccccn2)cc1 (stereo not drawn) | -0.9 | -21 | 0 | 6 | 2 | 2
O=C(c1cccc([N+](=O)[O-])c1)N1CCN(c2ncccn2)CC1 | 1.0 | 5 | -10 | . | 5 | 20
COc1ccc(C(=O)NCc2nnc(SCC(=O)c3ccccc3)n2C)cc1OC | -0.5 | -12 | -25 | -7 | -12 | -2
CCc1nn(C(C)C(=O)NCCN2CCCCCC2)c(=O)c2cc3occc3n12 (stereo not drawn) | -1.1 | 17 | -22 | 6 | 4 | -8
CC1(C)Cc2c(sc3ncnc(NNC(=S)NCc4ccccc4)c23)CO1 | 2.3 | -9 | 3 | . | 2 | -1
Cc1nc(C(F)(F)F)ccc1C(=O)N1CCC1(C)C(=O)Nc1ccc2c(c1)OCO2 (stereo not drawn) | 0.4 | . | -14 | 0 | 1 | 5
O=C(Cn1cc2c(n1)CCCC2)NCc1cccnc1 | -0.2 | 9 | -1 | 4 | 4 | 2
Cc1cc([N+](=O)[O-])cc(/C=N\NC(=O)C2COc3ccccc3O2)c1O (stereo not drawn) | 0.2 | 2 | -10 | -72* | -87* | 21
Cc1ccc(S(=O)(=O)N2CCSCCSCCSCCSCC2)cc1 | 4.0 | . | -16 | 4 | 2 | -7

Compound profiles, as listed above:
Results for CC1(C)Cc2c(sc3ncnc(NNC(=S)NCc4ccccc4)c23)CO1 → TRPML1 agonist: 2.3; TRPV1 potentiator: -9; D2 PAM: 3; CtBP-E1A inh: .; Six1-Eya2 blk: 2; TRPML1 blocker: -1
Results for COc1cc(Cl)c(C)cc1NC(=O)CSC1=NCCS1 → TRPML1 agonist: 1.0; TRPV1 potentiator: .; D2 PAM: -5; CtBP-E1A inh: .; Six1-Eya2 blk: 7; TRPML1 blocker: 16

Next part.
SMILES | TRPML1 agonist | TRPV1 potentiator | D2 PAM | CtBP-E1A inh | Six1-Eya2 blk | TRPML1 blocker
Cc1[nH]c(=O)[nH]c(=O)c1Cc1cccc2ccccc12 | 0.5 | -13 | 2 | 8 | -3 | 23
COc1ccc(C(=O)Nc2ccccc2[N+](=O)[O-])cc1S(=O)(=O)N1CCOCC1 | 0.2 | -7 | ? | 7 | -25 | 6
COc1ccc(/C=N/N=C/c2ccc(OC)c(O)c2)cc1O | 0.8 | -10 | 4 | -3 | -6 | 41
CCOc1ccc(NC(=O)COc2cccc3c2CCN(Cc2cccnc2)C3=O)cc1 | ? | -25 | -3 | 13 | -5 | -4
CC(C)C[C@H]1CN([C@@H](Cc2ccccc2)CN2CCC[C@@H]2CN2C(=O)C(=O)NC[C@@H]2Cc2ccccc2)C(=O)C(=O)N1CCc1ccccc1 | 0.1 | . | -3 | -19 | -22 | -19
CCN(CC(=O)Nc1ccccc1OC)C(=O)CN1C(=O)NC(C)(c2ccc3ccccc3c2)C1=O (stereo not drawn) | -0.6 | . | -7 | . | -4 | -6
COc1ccc(C)cc1N(CC(=O)Nc1ccc(S(=O)(=O)N2CCOCC2)cc1)S(C)(=O)=O | -0.2 | -5 | -2 | 0 | -17 | 1
CC(C)CCNC(=O)c1c(CSc2ccc(Cl)cc2)noc1C(=O)NCc1ccccc1 | 1.9 | . | -20 | 0 | 16 | -14
CC(O)CNCc1cccc2ccccc12 (stereo not drawn) | 0.6 | -6 | -13 | 1 | 7 | ?
OCCCCNCc1ccc(OCc2ccccc2Cl)cc1 | -0.3 | . | -18 | 5 | 2 | -13
COc1ccc(CNC(=O)O[C@]23C[C@H]4C(=O)N(c5ccccc5)C(=O)[C@H]4C[C@@]2(O)CN(S(=O)(=O)c2ccc(C)cc2)C3)cc1OC | 0.4 | . | 1 | 4 | -4 | 8
Cc1ccccc1NC(=O)CNc1ccc(Cl)c(C(F)(F)F)c1 | 1.7 | 8 | -5 | 1 | 5 | -9
CN1CCN(S(=O)(=O)c2cccc(C(=O)Nc3sccc3C(N)=O)c2)CC1 | 2.2 | -1 | -3 | -80* | -77* | 32
COC(=O)[C@@H]1C[C@@]2(O)[C@@H](O)[C@@H](O)[C@@H](O)C[C@H]2N1CC(c1ccccc1)c1ccccc1 | 1.5 | 0 | -7 | -4 | 2 | -18
Cc1c(CC(=O)O)c(=O)oc2cc(OCc3nn[nH]n3)ccc12 | -0.2 | -8 | -14 | 5 | -2 | -1
COc1cccc(NC(=O)C(OC(=O)c2cnc(C)cn2)c2ccccc2)c1 (stereo not drawn) | -0.7 | 0 | -7 | -1 | 1 | -5
CC1CCN(S(=O)(=O)c2ccc(C(=O)NCc3cccnc3)cc2)CC1 | -1.5 | -19 | -22 | 3 | 0 | -10
COc1ccc(C)cc1S(=O)(=O)N(CC(=O)N1CCCC1)c1ccc(C)cc1 | 1.0 | . | -12 | 5 | -1 | -15
CCCC(O)(c1ccc(CC)cc1)C(CN1CCOCC1)c1ccccc1 (stereo not drawn) | 0.3 | -8 | -12 | 1 | -3 | 8
O=C1CC(c2ccccc2)NC(=S)N1 (stereo not drawn) | -0.4 | . | -7 | 5 | -2 | -1

A section taken from the entries so far, for reference:
SMILES | TRPML1 agonist | TRPV1 potentiator | D2 PAM | CtBP-E1A inh | Six1-Eya2 blk | TRPML1 blocker
Cc1[nH]c(=O)[nH]c(=O)c1Cc1cccc2ccccc12 | 0.5 | -13 | 2 | 8 | -3 | 23
COc1ccc(C(=O)Nc2ccccc2[N+](=O)[O-])cc1S(=O)(=O)N1CCOCC1 | 0.2 | -7 | ? | 7 | -25 | 6
COc1ccc(/C=N/N=C/c2ccc(OC)c(O)c2)cc1O | 0.8 | -10 | 4 | -3 | -6 | 41

The list goes on:
SMILES | TRPML1 agonist | TRPV1 potentiator | D2 PAM | CtBP-E1A inh | Six1-Eya2 blk | TRPML1 blocker
O=C(Nc1cccc(S(=O)(=O)N2CCCC2)c1)c1ccco1 | -0.4 | . | -13 | . | -4 | 18
CN1CCN(C(=O)c2ccc(NC(=O)c3ccc(Br)o3)cc2)CC1 | -0.8 | . | . | 0 | 2 | .
O=C(COC(=O)C1CC1)Nc1ccccc1Sc1ccccc1 | 2.2 | -1 | -1 | 13 | 16 | 20
CSc1ccc(C2C3(C#N)C(N)=NC4(OCCO4)C23C#N)cc1 (stereo not drawn) | 0.3 | -7 | -8 | -8 | 4 | 0
C[C@H](NC(=O)c1nc[nH]c1C(=O)N[C@@H](Cc1ccccc1)C(=O)OCc1ccccc1)C(=O)OC(C)(C)C | 1.1 | 0 | -10 | -3 | -8 | 2
CN1CCC(N(C)C(=S)NCCc2ccccc2)CC1 | -0.6 | 3 | -9 | 3 | 6 | ?
CCc1c(C)c2ccc(O)c(CN3CCCC3)c2oc1=O | 1.8 | 3 | -25 | -18 | 4 | -4
C=CCN(C(=O)c1csnn1)C(C(=O)NC1CCCC1)c1ccc(F)cc1 (stereo not drawn) | -1.6 | -4 | -7 | 20 | 0 | -8
CC(=O)N1c2ccc(S(=O)(=O)N3CCCC(C(=O)Nc4cc(C)cc(C)c4)C3)cc2CC1C (stereo not drawn) | 0.9 | 20 | -4 | -22 | 0 | 39
O=C(NCCN1CCOCC1)c1c(Cl)cccc1Cl | 0.4 | ? | -8 | 4 | 12 | -1
CCOC(=O)c1cnc(SCC(=O)N2CCN(c3ccccc3)CC2)nc1N | 0.4 | -16 | 2 | -12 | 1 | 17
O=C(COC(=O)CNC(=O)c1ccccc1F)NCCC1=CCCCC1 | 0.3 | -19 | 7 | -2 | 6 | -3
CCn1c(N2CCC(C)CC2)nc2c1c(=O)n(C)c(=O)n2C | 0.7 | 20 | 6 | 2 | 1 | 23
Cc1cccc(N(C(=O)Cc2cccs2)C(C(=O)NC2CCCC2)c2ccncc2)c1 (stereo not drawn) | -1.8 | -15 | -1 | 10 | -2 | 26
CC(C)=C(NC(=O)c1ccccc1)C(=O)NCCc1nc2ccccc2[nH]1 | -0.7 | -1 | -7 | 6 | 0 | -14
CCCCC[C@@H]1C=C(C(=O)O)[C@H](c2ccc(C#N)cc2)N1S(=O)(=O)c1ccc(C)cc1 | -0.5 | . | . | 2 | -3 | 20
CCOC(=O)C1CCCN(C(=O)c2ccccc2NC(=O)C2=C(C)OCCS2)C1 (stereo not drawn) | -0.4 | 2 | -11 | -1 | 3 | 6
Cc1cc(C)n2c(SCC(=O)Nc3ccccc3)nnc2n1 | -0.1 | ? | -6 | -11 | 2 | 4
O=C(CCCNC(=O)c1ccc(Cl)cc1)Nc1cccc(S(=O)(=O)N2CCCCC2)c1 | -1.8 | -2 | -3 | . | -5 | -1
O=C(CSCc1ccccc1)NCc1ccc2c(c1)OCO2 | 4.3 | -19 | 6 | -1 | -2 | 6
CC(=O)NC(CC(=O)OC(C)C(=O)Nc1ccc(Cl)cn1)c1ccccc1 (stereo not drawn) | -0.6 | 11 | -24 | 11 | 3 | 3
CSCC(C)N1CCC(n2nccc2NC(=O)c2ccc3c(c2)OCO3)CC1 (stereo not drawn) | -0.4 | 3 | -4 | 4 | 1 | 4
CCOc1ccc(C2C(C(=O)c3ccc(C)o3)=C(O)C(=O)N2c2nc(C)c(C(=O)OC)s2)cc1 (stereo not drawn) | 0.9 | -9 | -3 | . | 8 | -15
COc1ccc(-c2[nH][nH]c(=O)c2NC(=O)c2ccccn2)cc1 | 0.3 | . | -12 | 0 | 4 | .
COc1ccccc1NC(=S)N(Cc1ccccc1)Cc1cccnc1 | 2.5 | -3 | 2 | 4 | 3 | -9
CN(CC(=O)Nc1c(Cl)cccc1Cl)C(=O)c1cc(-c2cccs2)nn1-c1ccccc1 | 1.2 | 11 | -25 | -23 | -7 | -4

Source: PubChem (National Center for Advancing Translational Sciences (NCATS))
